Bioassay records deposited in PubChem BioAssay by ICCB-Longwood Screening Facility, Harvard Medical School.
Ba CapD inh = blocks the Bacillus anthracis CapD enzyme | AID 492967 | z-score (test concentration not listed) | purified CapD enzyme, fluorescence intensity read-out; stronger effect = lower value; some hits fall short of the stated cut | 140,000 tested, 0.23% active;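 active means z-score under -4 in either of two replicates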;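 further: stock transfer was 100 nL into about 40 µL; score is relative to mean and spread of the plate; one replicate is shown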
AID504770 = growth inhibitors of E. coli YBA685 in a screen for V. cholerae RctB (chromosome II replication) inhibitors | z-score (concentration not given with the values) | E. coli YBA685 rctB-dependent plasmid, OD600 growth, 3 h; stronger effect = lower value | 130,000 tested, 0.27% active;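 active means z-score under -2 on both plates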;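 further: wells of about 30 µL received 100 nL stock; score is relative to mean and SD of the test wells; the first replicate is given; strong numbers were not always called active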
Numbers without * were called inactive; nt = no result given. The order is random; about 0.39% have a hit in one of these screens.

SMILES	Ba CapD inh	AID504770
CCc1ccc(C(N)c2cccc(F)c2)cc1 (stereo unspecified)	nt	-0.35
COCCNC(=O)c1ccc2c(=O)n(Cc3ccco3)c(SCC(=O)N(C)Cc3ccccc3)nc2c1	-1.02	nt
COc1cc(C2SCc3cc(C)c(C)cc3CS2)cc(OC)c1OC	0.13	nt
CC(C)N(C)C1CCN(S(=O)(=O)c2ccc(-c3ccc(=O)[nH]n3)s2)CC1	1.23	-0.1
COc1cc(C2Oc3ccc(Cl)cc3C3CC(c4ccco4)=NN32)cc(OC)c1OC (stereo unspecified)	-0.55	nt
Cc1c(O)ccc(-c2[nH]ncc2-c2ccccc2)c1O	-0.565	0.45
CCOC(=O)c1ccc(NC(=S)NN)cc1	-0.375	nt
Cc1cc(C)n(-c2ncnc3sc4c(c23)CCC4)n1	nt	0.1
CCn1c(=O)/c(=C\C=C2\N(C)c3ccc(-c4ccccc4)cc3C2(C)C)s/c1=C1\C(=O)N(c2ccccc2)N=C1C	-0.235	nt
O=C(Cn1ncc2c(=O)oc3ccccc3c21)N1CCCCC1	-0.225	0.7
O=C(NC1Cc2ccccc2C1)C1CCC1	0.455	nt
C/C(=N\NC(=O)c1cccnc1)c1ccc(S(=O)(=O)NCc2ccco2)cc1	nt	-0.85
Cc1cc2nc(-c3ccc(F)cc3)c(-c3ccc(F)cc3)nc2cc1C	-0.41	nt
COc1cc(OC)c(OC)cc1/C=C1N=C(/C=C/c2ccc(Cl)cc2Cl)OC\1=O	-0.455	nt
CCN1C(=C(C#N)C#N)C=Cc2ccccc21	0.15	-0.25
Cc1sc(/N=C/c2ccccc2O)c(C#N)c1C	-0.28	-0.25
CC(C)(C)OC(=O)N1CCC(c2cc(=O)n(-c3ccccc3)[nH]2)CC1	-0.195	-0.25
COCCN(C(=O)c1ccccc1)c1nnc(-c2ccncc2)s1	nt	-0.85
O=C(CCS(=O)(=O)c1ccc(Br)s1)NC1CCCC1	0.81	-1
O=c1c(CN(c2cccc(C(F)(F)F)c2)S(=O)(=O)c2ccccc2)cc2cccc3c2n1CCC3	-0.56	nt
Cc1cc(C(=O)N(C2CCCCC2)C2CCCCC2)no1	-0.495	0.1
CCOC(=O)c1ccc(N2N=C(C(F)(F)F)CC2=O)cc1	nt	-1.15
ON=C(Cc1ccccc1)Cc1ccccc1	-0.24	-0.8
CN(C)CCNC(=O)c1ccc(N2CCOc3ccccc32)s1	3.53	-0.9
CC(C)=CC(=O)N1CCN(S(=O)(=O)c2ccc(C)cc2)CC1	nt	-0.8
O=C(NCc1ccccc1)c1cc2c(s1)CS(=O)(=O)C2	0.02	-0.05
Cn1cc(/C=N/NC(=O)c2ccc3nonc3c2)c2ccccc21	-0.88	nt
COc1ccccc1NC(=O)Oc1ccccc1N1CCCC1	0.35	1.05
CCOC(=O)c1c(-c2ccccc2)oc2c1cc(OC(=O)c1ccc(C)cc1)c1ccccc12	0.49	nt
CCOc1ccc2nc(/N=C/c3nc(-c4ccc([N+](=O)[O-])cc4)oc3O)sc2c1	-0.555	nt
O=C(O)c1ccccc1C(=O)Nc1ccccn1	1.6	-0.6
Cc1ccc(S(=O)(=O)C(=O)Nc2cccc3nsnc23)cc1	nt	0.8
Cn1c(SCc2ccc(Cl)cc2Cl)nc(C(F)(F)F)cc1=O	-0.45	nt
CC(=O)Nc1cc(C(F)(F)F)ccc1NC(=O)C(F)(F)F	-0.915	0.85
Cc1c(C)c(C)c(CSC2=NCN(C)CN2)c(C)c1C	0.1	1.95
O=C(O)CCCC(=O)c1ccccc1	0.19	0.25
COc1ccc(CCNC(=O)c2sc3ncnc(N4CCN(c5ccccn5)CC4)c3c2C)cc1OC	-0.905	nt
O=C(Cc1ccsc1)OCC(=O)N1CCN(S(=O)(=O)c2ccc(Cl)cc2)CC1	nt	0
COc1ccc(-c2nnc(SC(C)C(=O)NC34CC5CC(CC(C5)C3)C4)o2)cc1 (stereo unspecified)	nt	-0.45
COc1ccc(/C=C2\CCCC3=C2NC(=S)NC3c2ccc(OC)cc2)cc1 (stereo unspecified)	-0.045	0.05
CCS(=O)(=O)N(CC(=O)N1CCCC1)c1ccc(OC)cc1	0.34	-0.4
CCOc1ccc(/C(O)=C2\C(=O)C(=O)N(CCN(CC)CC)C2c2ccc(Cl)cc2)cc1C (stereo unspecified)	-0.31	-0.45
O=C(NCc1cccnc1)c1cc2nc(-c3ccc4c(c3)OCO4)cc(C(F)(F)F)n2n1	0.995	nt
COc1cc(CN2CCN(CCOC(=O)NNC(=O)c3csc(Cn4cnc(Cl)c4Cl)n3)CC2)cc2c1OCO2	-0.35	nt
O=C1c2cccc3cccc(c23)C(=O)N1CCN1CCN(S(=O)(=O)c2cccs2)CC1	-0.38	nt
Fc1cccc(Cl)c1-c1noc(-c2cc(-c3ccncc3)nc3ccccc23)n1	0.12	nt
CCNC(=S)NCc1ccc2c(c1)OCO2	nt	-1.4
CC(Sc1nnc(-c2ccco2)n1Cc1ccccc1)C(=O)NC1CCCC1 (stereo unspecified)	nt	-0.7
CC(=O)N(Cc1ccccc1C)c1cccc(C)c1C	0.055	-0.75
Fc1ccc2nc(N3CCc4ccccc4C3)sc2c1	nt	0.05
CCN1C(=O)C(=Cc2ccc(-c3cc([N+](=O)[O-])ccc3Cl)o2)C(=O)N(CC)C1=S	-0.175	nt
Cc1ccc(F)cc1NC(=O)CNC(N)=O	nt	-0.65
COc1ccc(C=Nc2c(C)n(C)n(-c3ccccc3)c2=O)cc1	0.345	nt
O=C(CCCN1CCC(O)(c2ccc(Br)cc2)CC1)c1ccc(F)cc1	-0.25	nt
COc1ccc2c(c1OC)C(=O)O[C@@H]2[C@@H]1c2cc3c(cc2CCN1C)OCO3	nt	0.15
CC(/C(=N/O)c1ccccc1)N1CCC(O)O1 (stereo unspecified)	nt	-0.85

Going on with the list:
SMILES	Ba CapD inh	AID504770
CC(C)N(Cc1ccccc1)C(=O)COc1ccccc1	0.22	-0.5
CCC(C(=O)Nc1ccccc1F)n1c(SCc2ccc(F)cc2)nc2ccncc21 (stereo unspecified)	-0.005	0.15
O=c1cc(CN2CCOCC2)nc2sccn12	nt	-0.15
Cc1ccc(OCCCn2cnc3ccccc32)cc1	0.225	-0.1
O=C1NCCCc2nc(N3CCCCC3)sc21	nt	0.3
OCCN(CCO)c1cccc(Cl)c1	-0.095	-0.25
COCc1cc(=O)n2[nH]c(Nc3cc(Cl)ccc3C)nc2n1	0.72	-0.75
O=C(CCCN1C(=O)CSc2ncccc21)N1CCN(c2ccccn2)CC1	7.16	0.45
O=C(O)CSCC(=O)N1CCCCC1	-0.26	1.6
CCOC(=O)c1cnc2cc(-c3ccc(C(C)(C)C)cc3)[nH]n2c1=O	0.11	0.25
FC(F)(F)c1cccc(CSc2ncc(-c3ccc(Cl)cc3)cn2)c1	-0.94	nt
COc1cc(/C=C(\C)[N+](=O)[O-])cc(OC)c1	-0.94	nt
Nc1ccc(C(=O)CC(=O)Nc2ccc(Cl)cc2)cc1	-0.65	-0.7
Cc1ccc(N2CCN(C(=O)c3cccs3)CC2)cc1C	0.225	-1.25
C/C(=N\O)C1(C)N(O)C(C)(C)C(c2cccs2)=[N+]1[O-] (stereo unspecified)	nt	-0.85
CS(=O)(=O)c1ccccc1-c1nc(-c2ccc(C(F)(F)F)cc2)no1	-0.255	nt
O=C(c1cc2cc(Br)ccc2oc1=O)N1CCSC1c1cccc(Cl)c1 (stereo unspecified)	-1.22	nt
CC(c1ccco1)N(C(=O)c1sc2ccccc2c1Cl)c1ccccn1 (stereo unspecified)	0.31	-1.2
c1ccc(-c2nc(CSc3nc4ccccc4[nH]3)c(CSc3nc4ccccc4[nH]3)o2)cc1	-0.075	0
CSc1nnc(-c2cccs2)n1-c1ccccc1	1.13	0.15
O=C(Cc1ccccc1)NNc1cccc(Cl)c1	0.48	-0.85
COc1ccc(S(=O)(=O)N2CCN(c3ccccn3)CC2)cc1OC	3.21	nt
Cc1cc(C)cc(NCCC#N)c1	nt	-0.6
COc1ccc(-c2n[nH]c(=S)n2/N=C/c2cccc(OC)c2O)cc1	-0.45	0.4

Full records, quoted from the list. Screens in order: Ba CapD inh	AID504770
Cc1cc(C)cc(NCCC#N)c1 reads nt	-0.6
c1ccc(-c2nc(CSc3nc4ccccc4[nH]3)c(CSc3nc4ccccc4[nH]3)o2)cc1 reads -0.075	0
COc1ccc(S(=O)(=O)N2CCN(c3ccccn3)CC2)cc1OC reads 3.21	nt
CSc1nnc(-c2cccs2)n1-c1ccccc1 reads 1.13	0.15

Following part
SMILES	Ba CapD inh	AID504770
CCCC1OC2CC3C4CCC5=CC(=O)C=CC5(C)C4C(O)CC3(C)C2(C(=O)O)O1 (stereo unspecified)	nt	1.55
Cc1oc2cc(O)ccc2c(=O)c1-c1ccccc1	nt	1.4
O=C(O)CC(=O)Nc1cc(Cl)ccc1O	-0.345	-0.3
Cc1nn(-c2ccccc2)c2oc(=O)c(NC(=O)c3ccc(F)cc3)cc12	32	0.15
O=C(CSc1cnc2ccccc2n1)NC1CCCC1	-0.295	0.65
CC(C)n1cc(-c2ccc(S(C)(=O)=O)cc2NC(=O)C(c2ccccc2)c2ccccc2)cn1	0.79	nt
Oc1ccc(Br)cc1C=NCC1CCCO1 (stereo unspecified)	-1.49	0.7
FC(F)(F)c1cccc(NC(=S)N(CCc2ccccc2)CCc2ccccn2)c1	0.82	nt
CSc1nnc2n(-c3ccccc3)c(=O)c3c(C)c(C)sc3n12	-0.24	nt
c1cc2cc(C3=NCCN3)ccc2cc1C1=NCCN1	nt	0.2
O=C(Nc1cc(Oc2ccc(Cl)cc2Cl)cc([N+](=O)[O-])c1)c1sc2ccccc2c1Cl	-0.905	nt
CCn1c(O)c(/C=N/N=C2/C(=O)N(C)c3ccccc32)c(=O)n(CC)c1=S	nt	-0.5
NC(=O)C1(c2ccccc2)CCOCC1	-1.08	0.35
CC1CC(C)CN(CCCN)C1 (stereo unspecified)	nt	-0.4
C=CCN(C(=O)CN1CCOCC1)c1nc(C)c(-c2ccccc2)s1	nt	-0.6
CS(=O)c1ccccc1-c1nc(-c2cccc(C(F)(F)F)c2)no1 (stereo unspecified)	-0.115	nt
O=[N+]([O-])c1cc(C(F)(F)F)ccc1OCCO	-0.855	nt
C[C@@]1(C(=O)O)CC[C@]2(C)CC[C@]3(C)C4=CC=C5C=C(O)C(=O)C=C5[C@]4(C)CC[C@@]3(C)[C@@H]2C1	0.005	nt
Cc1cc(C(F)(F)F)c2c(n1)sc1c(=O)[nH]c(C)nc12	15.1	1
CC1CN(C(=O)CCS(=O)(=O)c2ccccc2)CC(C)O1 (stereo unspecified)	nt	-0.85
COC(=O)c1scc2c(Sc3nccn3C)cc(C(F)(F)F)nc12	0.805	-0.85
O=C(Nc1cccc(Cl)c1)OC1CCCCc2cccnc21 (stereo unspecified)	0.565	-0.75
CC(=O)Oc1ccc2c(c1)C(C)=CC(C)(C)N2C(C)=O	0.615	0.15
COC(=O)c1cc(-c2nc(C)cs2)c(SC)s1	0.015	0.2
COC(=O)c1ccc(NC(=O)COc2ccccc2)cc1	0.045	0
Fc1ccc(Oc2cnccn2)c(Cl)c1	nt	-0.2
CC1CCCC(N2CNc3nc4ccccc4n3C2)C1C (stereo unspecified)	0.66	-0.3
Cc1ccc(CN2C(=O)/C(=C/C(=O)NCCc3ccccc3)Sc3ccccc32)cc1	-0.235	0.1
O=S(=O)(NCc1cc(F)cc2c1OCOC2)c1ccc(N2CCOCC2)nc1	3.58	1.8
CC(NS(=O)(=O)c1ccccc1)C(N)=O (stereo unspecified)	-0.15	0.1
CCCN1CCC(N(C(=O)C(c2ccccc2)c2ccccc2)C2CC2)CC1	-0.73	nt
Cc1ccc(C)c(-n2c(SCCN)nnc2-c2cccc(Cl)c2)c1	nt	0.3
COc1ccc(N=c2scc(C)n2CCCN2CCCC2=O)cc1	nt	0.5
Cc1csc2ncc(C(=O)N(C)Cc3ccccc3)c(=O)n12	nt	1.15
CCOC(=O)c1cc(C(=O)NN)c(C)nc1C	nt	-0.35
O=C(COc1ccccc1)N(Cc1ccco1)c1ccc(O)cc1	-0.64	0.15
N#Cc1ccccc1NC(=O)COC(=O)Cc1cccc2ccccc12	-0.97	-0.15
COc1ccc(C2NC(=O)C(=O)/C2=C(\O)c2ccc(Br)cc2)cc1OC (stereo unspecified)	-0.54	nt
c1csc(CNC2=NCCS2)c1	nt	1.1
CC(=O)NCCC(=O)Nc1nnc(SCc2ccc(C#N)cc2)s1	nt	-0.3
CC(=O)N[C@@H](Cc1c[nH]c2ccccc12)C(=O)O	-0.335	-0.15
O=S(=O)(Cc1noc(-c2ccc(Cl)cc2)n1)c1ccccn1	-0.07	-0.25
O=C(O)c1n[nH]c2c1CCC2	-0.56	0.9
CC(C)c1cc(C(=O)O)n(-c2ccccc2)n1	-0.015	-0.35
CCc1nn2c(=O)cc(CSc3nc(C)cc(=O)[nH]3)nc2s1	-0.175	1.15
CCCn1c(SCC(N)=O)nnc1C1CC1	-0.385	-0.15
CC(N)c1ccc2c(c1)CCC2 (stereo unspecified)	nt	-1
O=C(O)CC(CC(=O)Nc1nncs1)c1ccccc1 (stereo unspecified)	0.23	-0.25
COC(=O)C(NC(=O)c1ccccc1OC)(Nc1sc2c(c1C#N)CCC(C(C)(C)C)C2)C(F)(F)F (stereo unspecified)	-0.15	nt
